Bioassay records as filed in PubChem.
AmpC nodet inh = AmpC beta-lactamase inhibition, detergent-free assay; AID 585; AmpC nitrocefin hydrolysis, absorbance 480 nm, no detergent; potencies from a single point are estimates; P00811; hit rate 1.8% among 71,000; Potency, µM (highest dose often 28.7 µM), for the others: at the highest dose activity change, negative = inhibition; active = falling curve, for most hits resting on a single point; inconclusive = weak or doubtful change; inactive = flat or rising curve; also: % of control where 0% means no effect; about half of the hits show no inhibition at the top dose; a quarter of the inactives give rising signals
Target sequence (P00811 whole entry, looked up): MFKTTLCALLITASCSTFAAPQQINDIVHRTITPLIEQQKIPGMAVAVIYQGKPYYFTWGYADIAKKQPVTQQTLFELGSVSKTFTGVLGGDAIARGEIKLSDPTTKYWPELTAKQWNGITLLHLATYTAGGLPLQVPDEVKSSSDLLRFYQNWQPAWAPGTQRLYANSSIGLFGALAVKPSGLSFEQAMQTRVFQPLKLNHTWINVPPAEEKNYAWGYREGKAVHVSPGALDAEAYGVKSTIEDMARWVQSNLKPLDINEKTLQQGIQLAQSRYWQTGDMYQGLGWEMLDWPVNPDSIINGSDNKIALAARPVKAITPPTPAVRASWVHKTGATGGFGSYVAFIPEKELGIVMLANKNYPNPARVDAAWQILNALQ
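Enzyme, pH 7.0 phosphate. Compound titrations were pre-incubated with AmpC for 15 min at room temperature before nitrocefin (stock 800 uM) addition; product formation was recorded at 480 nm every 20 s for 4 min.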
Starred values were filed as active, the others as inactive; [ ] = another dose, or the depositor's remark. Potency is read from the fitted curve at half-maximal effect. Some of the compounds tested, so the mix of outcomes need not match the whole.

SMILES | AmpC nodet inh
Cc1ccc2c(c1)CNc1ccccc1O2 | 0%
Cc1nnc(SCCCn2c(N3CCCCC3)nc3c2c(=O)[nH]c(=O)n3C)s1 | -2%
Cc1onc(-c2ccccc2Cl)c1C(=O)Nc1ccc(-c2nnc3n2CCCCC3)cc1 | 116%
CCCCS(=O)(=O)Nc1ccc2ncn(C)c(=O)c2c1 | 2%
O=C(NC12CC3CC(CC(C3)C1)C2)c1cccnc1 | 3%
COCCNC(=O)C1c2cc(OC)c(OC)cc2C(=O)N(C)C1c1cccnc1 (stereo not drawn) | -4%
COCCCN1C(=O)C(=O)/C(=C(/O)c2ccc(OC(C)C)c(C)c2)C1c1ccncc1 (stereo not drawn) | -8%
O=C1CC(c2cccc(Cl)c2)Cc2nc(N3CCN(c4ccccc4)CC3)ncc21 (stereo not drawn) | 7%
COc1ccccc1NC(=O)c1oc2ccccc2c1NC(=O)c1cc(OC)c(OC)c(OC)c1 | 50%
Cc1nccc2[nH]c(=O)c(C(=O)NC3CCCCC3C)cc12 (stereo not drawn) | -8%
Cc1nc2cc(C(=O)OCC(=O)N(CC(C)C)C3CCS(=O)(=O)C3)ccc2n1-c1ccccc1 (stereo not drawn) | 137%
COC(=O)c1ccc(S(=O)(=O)N2CCCCCC2)cc1 | 14%
COc1cc(C2C(C#N)=C(N)Oc3cc(C)oc(=O)c32)cc2c1OCO2 (stereo not drawn) | -1%
Clc1cccc(-c2nn3c(Cn4cnc5ccccc54)nnc3s2)c1 | 36%
Cc1cccc(S(=O)(=O)c2c(N)n(/N=C/c3cccnc3)c3nc4ccccc4nc23)c1 | 57%
O=C(c1csc2c1CCCCC2)N1CCN(c2ncccn2)CC1 | 41%
Cc1ccc(NC(=O)CSc2nc3nc(C)cc(C)c3c(=O)[nH]2)cc1 | 10%
Cc1ccccc1S(=O)(=O)Cc1ccc(C(=O)NCc2cccnc2)o1 | 20%
CCn1c(CSc2nncn2-c2ccc(OC)cc2)nc2cc(S(=O)(=O)N(C)C)ccc21 | 45%
CCCOc1ccc(NC(=O)C2CC(=O)N3CCCN=C3S2)cc1 (stereo not drawn) | -12%
CCCOc1cc(C)c(S(=O)(=O)NCCOC)cc1C | 49%
CCN(CC)Cc1cc(Nc2ccnc3cc(Cl)ccc23)ccc1O | -1%[12.8 µM]
CC(C)N(Cc1nc(-c2ccc(Cl)cc2)no1)C(=O)CN(C)S(=O)(=O)c1ccc(Cl)cc1 | 49%
COCCNC(=O)C(c1ccc(Cl)cc1)N(C(=O)CCC(=O)Nc1ccccn1)C1CCCC1 (stereo not drawn) | 103%
CC(C)N1C(=O)c2ccc(C(=O)O)cc2C1=O | 4%

Remaining list, next part
SMILES | AmpC nodet inh
CCCC(=O)NC1C2CC3CC(C2)CC1C3 (stereo not drawn) | 2%
CCCOc1ccc2[nH]cc(C3=CCNCC3)c2n1 | 26%
Cc1cc(C(=O)CSc2nc3ccc(Cl)cc3[nH]2)c(C)n1C | 3%
O=C(Nc1ccccc1)C1=C(N2CCOCC2)/C(=C/c2cccnc2)CC1 | 56%
COc1ccc(CCNS(=O)(=O)c2ccc3c(c2)CCN3C(=O)C2CC2)cc1OC | 29%
O=C(Nc1nc(-c2ccc(Cl)s2)cs1)c1ccncc1 | -15%
Cc1ccccc1NC(=O)CSc1nnc(-c2ccoc2C)n1CCc1ccccc1 | 25%
O=C(c1cnccn1)N1CCC2(CC1)CCN(c1ccccc1)CC2 | 37%
Cc1ccc(C(=O)C2=C(O)C(=O)N(Cc3ccccc3)C2c2cccnc2)o1 (stereo not drawn) | 2%
COC(=O)c1ccc(Nc2nc(C)cc(=O)[nH]2)cc1 | 128%
Cc1nc(NC(=O)CSc2nc3cccnc3n2Cc2ccccc2)sc1C | 54%
Cn1nc(CC(=O)Nc2cccnc2N2CCOCC2)c2ccccc2c1=O | -3%
COc1cc2c(cc1OC)CN(C(=O)NS(=O)(=O)c1ccc(C)cc1)CC2 | -2%
O=C(Oc1cccc2c(O)cccc12)c1ccccc1 | -15%
CCCC(=O)Nc1ccc(NC(=O)c2ccco2)c(OC)c1 | -7%
N#CC(C(=O)c1ccco1)c1ccccn1 (stereo not drawn) | -8%
CCOC(=O)c1cc(-c2cc3ccccc3o2)nc2c1c(=O)[nH]c(=O)n2CCOC | 36%
CCCNC(=O)Cn1cnc2sc(C(=O)NCCN(CC)CC)c(C)c2c1=O | -2%
O=C(O)C1CCCCC1C(=O)Nc1ccc(Cl)cc1Cl (stereo not drawn) | -13%
CCOC(=O)NC1(NCc2ccccc2)Oc2ccccc2O1 | 26%
O=[N+]([O-])c1ccc(Cl)cc1 | -6%
O=C(Nc1ccccc1C(F)(F)F)c1cccnc1 | -1%
O=C(Nc1cccc(C(F)(F)F)c1)c1cc(-c2cccs2)on1 | -7%
CCOC(=O)C(C)Sc1nnc(Cc2cc(=O)[nH]c(=O)[nH]2)n1-c1ccc(Cl)cc1 (stereo not drawn) | 9%
Cn1cnc2cc(NC(=O)c3ccco3)ccc21 | -2%

Further structures
SMILES | AmpC nodet inh
O=C(NC1CCCCC1)C1CN(S(=O)(=O)c2ccccc2)CCN1S(=O)(=O)c1ccccc1 (stereo not drawn) | 22%
c1ccc(C2(Cn3ccc4ccccc43)OCCO2)cc1 | 3%
Clc1ccc(OCCN2CCN(c3ncnc4sccc34)CC2)cc1 | 89%
Cc1cc(C)n2nc(CC(=O)NC3CCCC(C)C3C)nc2n1 (stereo not drawn) | 11%
Cc1ccccc1N(CC(N)=O)S(C)(=O)=O | 1%
Cc1cc(C(=O)NCCCN2CCOCC2)n(-c2ccccc2)n1 | 24%
CCC(=O)Nc1cccc(-c2nc3ccccc3c(=O)o2)c1 | 32%
Cn1c(=O)cc(SCC(=O)NCC2CCCO2)c2ccc(Cl)cc21 (stereo not drawn) | 41%
Cc1nonc1NC(=O)c1ccc(Cl)c(S(=O)(=O)N2CCCCC2)c1 | -14%
CC(C)C[C@H](NC(=O)NCc1ccc(Cl)cc1)C(=O)O | -2%
O=C1C(c2ccc(F)cc2)N(C2CCCCC2)C(=O)CN1C1CCCC1 (stereo not drawn) | 27%
CC1Cc2ccccc2N1C(=O)COc1cccc(-n2cnnn2)c1 (stereo not drawn) | 6%
CCOC(=O)C1CCCN(CC(=O)Nc2c(C(=O)OC)[nH]c3ccc(Br)cc23)C1 (stereo not drawn) | 88%
CCCN(CCC)S(=O)(=O)c1cc(Br)cc2c1N(C(=O)CC)CC2 | 80%
COc1cccc(C2CC(c3ccc(C)cc3)Nc3nc(N)nn32)c1 (stereo not drawn) | 4µM*[single pt active]
CC(C)N(C)C | -6%
C(=N\c1c(-c2ccccc2)nc2n1CCS2)/c1ccccc1 | 35%
O=S(=O)(NCC(c1cccnc1)N1CCN(Cc2ccccc2)CC1)c1ccccc1 (stereo not drawn) | 60%
O=C(Cn1c(=O)n2ncnc2c2c3c(sc21)CCCC3)c1ccccc1 | 39%
COc1ccc(-c2cc(C(=O)O)c(C)o2)cc1OC | -15%
CCN(CC(=O)Nc1c(C(=O)OC)[nH]c2ccccc12)c1ccc2c(c1)OCO2 | 24%
Cc1cc2c(cc1C)NC(c1ccccn1)C1=C(CC(C)(C)CC1=O)N2 (stereo not drawn) | -2%
CCOC(=O)c1c(NC(=O)CSc2nnnn2-c2ccc3c(c2)OCCO3)sc(C)c1C | -15%
CCN(CC)S(=O)(=O)c1ccc2oc(C(=O)NCC3COc4ccccc4O3)c(C)c2c1 (stereo not drawn) | 19%
O=C(c1noc2c1CCc1ccccc1-2)N1CCc2ccccc2C1 | 5%

Later entries.
SMILES | AmpC nodet inh
COc1ccc(S(=O)(=O)Nc2ccc(S(=O)(=O)N3CCOCC3)cc2)cc1 | -8%
COC(=O)C1CCN(c2cc(=O)n(C3CCCCC3)c(=O)[nH]2)CC1 | 16%
Cc1cc(C)nc(NS(=O)(=O)c2ccc(NC(=O)CCN3C(=O)c4ccccc4C3=O)cc2)n1 | 9%
CC1=C(C)C(=O)N(c2ccccn2)C1=O | -9%
COc1ccc(-n2c(=O)[nH]cc(C(=O)Nc3ccc4c(c3)OCCO4)c2=O)cc1 | 25%
Cc1cc(-c2nnc(-c3cc4ccccc4oc3=O)o2)c(C)n1-c1ccccc1 | 32%
O=c1[nH]c(=O)n(-c2ccc(F)cc2)c(O)c1C=Nc1ccccc1N1CCCC1 | -17%
CCOC(=O)c1cc(-c2nnc(-c3cc(OC)c(OC)c(OC)c3)o2)c(C)nc1C | 124%
COc1ccccc1N1CCN(C(=O)c2c(-c3ccccc3Cl)noc2C)CC1 | 130%
CCOc1ccc2[nH]c(=O)c(CN(Cc3cccs3)C(CC)c3nnnn3C(C)(C)CC)cc2c1 (stereo not drawn) | 31%
Clc1ccccc1Nc1c2c(nc3ncnn13)CCC2 | 4%
Cc1ccc(CCNC(=O)C2CCN(S(=O)(=O)c3ccc4c(c3)CCC(=O)N4)CC2)cc1 | 0%
N[C@@H](Cc1c[nH]c2ccc([N+](=O)[O-])cc12)C(=O)O | -2%[5.75 µM]
COc1cc(C(=O)OCc2cc3ccccc3[nH]c2=O)cc(OC)c1OC | 12%
CN1C(=O)c2ccccc2C(C(=O)NCC2CCCO2)C1c1c[nH]c2ccccc12 (stereo not drawn) | 19%
CN1C(=S)SC(/[N+]([O-])=C\c2ccco2)C1(C)C (stereo not drawn) | -4%
CCc1cccc(Nc2cc(C)nc3nc(C)nn23)c1 | 40%
O=c1c(-c2cc(F)cc(F)c2)nc2cncnc2n1Cc1ccccc1Cl | -9%
COc1ccc2nc(NC(=O)Cc3ccc(OC)c(S(=O)(=O)N4CCOCC4)c3)sc2c1 | 36%
CCOS(C)(=O)=O | -17%
COc1ccc(C)cc1S(=O)(=O)NC1CCCCC1C (stereo not drawn) | 15%
CCOC(=O)N1CCN(CC(O)COc2c(OC)cccc2OC)CC1 (stereo not drawn) | 22%
O=C(Nc1cc(=O)[nH]c2ncnn12)c1ccccc1Cl | -7%
CCOCCCNc1nc2ccccc2[nH]1 | -11%
CCOc1cc(C2CC(=O)Nc3cc(C)c(C)cc32)ccc1O (stereo not drawn) | 4%

(cont.)
SMILES | AmpC nodet inh
CCn1c(SC)nc2c(c1=O)SC(C)C2 (stereo not drawn) | -5%
COc1cccc2cc(C(=O)N(C)C)c(=O)oc12 | -6%
CCOC(=O)C1CCN(Cc2ccc(F)cc2)CC1 | 4%
CC(=O)OC(C(=O)NC1CCCCC1)c1ccccc1 (stereo not drawn) | -2%
O=C(c1cnccn1)N1CCC2(CC1)CN(c1ccncc1)C2 | 11%
O=C1CCC(=O)N1CCC(c1ccc(F)cc1)c1ccco1 (stereo not drawn) | 43%
Cc1onc(-c2c(F)cccc2Cl)c1C(=O)Nc1cccc(Cn2cccn2)c1 | 6%
CCN(Cc1ccccc1)C(c1cc2cc(C)cc(C)c2[nH]c1=O)c1nnnn1CCOC (stereo not drawn) | 127%
CC(C)C[C@@H](CC(=O)N[C@@H](CCC(=O)O)CC(=O)O)NC(=O)[C@@H]1CCCC[C@H]1NC(=O)C[C@@H](NC(=O)C[C@H](Cc1c[nH]c2ccccc12)NC(=O)[C@@H]1CNCC[C@H]1N)C(C)C | 111%
CCN1C(=O)C(CC(=O)N2CCN(C(c3ccccc3)c3ccccc3)CC2)N(CC)C1=O (stereo not drawn) | 121%
COc1cc(-c2nnc(COC(=O)C3c4ccccc4Oc4ccccc43)o2)cc(OC)c1OC | 71%
CCC(C)(C)NC(=O)C(OC(=O)c1ccco1)c1ccccc1OC (stereo not drawn) | 10%
COCCn1c(=O)c(-c2ccc(F)cc2)nc2cncnc21 | 12%
O=C(Nn1cnnc1)c1csc2ccccc12 | -13%
O=C(O)COc1cccc(NC(=O)c2ccccc2)c1 | -6%
OB(O)O | -15%
COc1ccc2oc(C(=O)OCC(=O)c3ccc4c(c3)OCCO4)c(C)c2c1 | -18%
Cc1nn(-c2ccccc2)c2sc(C(=O)C(C#N)c3ccccn3)cc12 (stereo not drawn) | 6%
Cc1ccc(NC(=O)c2cc(N(C)C)ccc2[P+](=O)O)cc1 | -5%
CCOc1ccccc1-c1nc2c([nH]1)c(=O)n(C)c(=O)n2C | 66%
CCCCN(CC)CCCNC(=O)c1cc2cc3ccc(OC)cc3nc2o1 | 34%
